CtBP-E1A blk: blocks the CtBP interaction with E1A; AlphaScreen GST-E1A/His-CtBP binding, 1536-well; hits give low values; control for the full effect not named in the record; activity change, % (no concentration beside the values); hit rate 0.49% among 340,000; in the data active means activity change below about -65%; inconclusive means about -30% to -65%; inactive means above about -30%; also: % is scaled to controls: 0 for no effect and ±100 for the full control effect; compound concentration not given in the record
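GST-E1A and His-tagged CtBP (125 nM each as 5X stock) were preincubated with pin-transferred compound for 2 h at 37 °C in the dark, then glutathione donor and nickel acceptor beads were added for 1 h before AlphaScreen reading.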
TRPML1 inh: blocks the human TRPML1 channel. activity change, negative = inhibition, % (no concentration beside the values). TRPML1-inducible cells, Ca2+ dye fluorescence, FDSS; hits give low values; inhibition of EC80 agonist-evoked calcium signal. hit rate 0.02% among 390,000; in the data active means activity change below about -50%; inconclusive means about -30% to -50%; inactive means above about -30%;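 also: stimulus is agonist 54-4 at its EC80 concentration; % is scaled to controls: 0 for no effect and ±100 for the full control effect; compound concentration not given in the record; the text of the record puts the active cut at -80%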
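Calcium fluorescence in TRPML1-DL cells induced overnight with Tet: a 110 s read after compound pin addition, then a 110 s antagonist read after challenge with 54-4 at 4 uM final (EC80).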
TRPML1 agonist: agonists of human TRPML1 channel; TRPML1-expressing cells, Ca2+ dye fluorescence, FDSS; host cell line not named in the record; reference of the full effect not given here; activation, % (concentration not given with the values); hit rate 0.12% among 410,000; AID 624414; in the data active = activation above about 50%; inconclusive = about 30% to 50%; inactive = below about 30%; also: 0% is about no effect; the text of the record puts the active cut at 80%
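Kinetic FDSS Ca2+ read in Tet-induced TRPML1-DL cells (ABD Ca8 dye plus quencher, 45-90 min RT loading): baseline, then compound, then 110 s agonist window; EC80 agonist 54-4 at 4uM final added afterwards for a 110 s antagonist window.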
D2 potentiator: human D2 receptor positive allosteric modulation. AID 624464. potentiation, % (no concentration beside the values). DiscoveRx D2 beta-arrestin cells, luminescence, 90 min; 100% = 57 uM dopamine signal. hit rate 0.23% among 360,000. P14416; active = potentiation of 50% or more; inconclusive = 30% to 50%; inactive = 30% or less;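 also: compound concentration not given in the record; tested on top of an EC20 dose of dopamine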
Target sequence (P14416 whole entry, looked up): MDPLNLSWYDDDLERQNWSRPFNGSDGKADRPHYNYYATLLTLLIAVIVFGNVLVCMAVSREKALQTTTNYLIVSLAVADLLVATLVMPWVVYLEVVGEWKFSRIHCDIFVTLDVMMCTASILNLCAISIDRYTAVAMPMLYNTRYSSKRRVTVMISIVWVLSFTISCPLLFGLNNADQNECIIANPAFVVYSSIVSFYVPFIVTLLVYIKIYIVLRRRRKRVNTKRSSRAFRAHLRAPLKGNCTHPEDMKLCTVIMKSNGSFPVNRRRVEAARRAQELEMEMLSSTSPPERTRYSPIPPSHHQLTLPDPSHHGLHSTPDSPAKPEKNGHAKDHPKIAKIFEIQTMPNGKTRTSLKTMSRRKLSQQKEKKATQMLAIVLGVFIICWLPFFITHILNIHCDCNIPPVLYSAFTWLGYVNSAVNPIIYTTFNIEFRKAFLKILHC
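PathHunter beta-arrestin assay in DiscoveRx D2 cells. Compounds were added with an EC20 of dopamine (50 nM final) for 90 min at 37 deg C. Luminescence was read 1 h after detection reagent, with 57 uM dopamine as the EC100 control.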
Six1-Eya2 blk: Six1/Eya2 interaction inhibition; Q15475+O00167; AlphaScreen GST-Six1/His-Eya2 binding, biochemical; hits give low values; control for the full effect not named in the record; activity change, % (test concentration not listed); hit rate 0.56% among 360,000; AID 651725; in the data active = activity change below about -65%; inconclusive = about -30% to -65%; inactive = above about -30%; also: % is scaled to controls: 0 for no effect and ±100 for the full control effect; compound concentration not given in the record
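GST-Six1 + His-Eya2 (5X stock: 250/500 nM); Tris pH 8.0, 300 mM NaCl, 0.05% BSA, 0.02% Tween 20; GSH donor/Ni acceptor beads; 1 h 37 °C dark; AlphaScreen readout.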
TRPV1 potentiator: human TRPV1 potentiation. Q8NER1. TRPV1-expressing cells, Fluo-8 calcium influx, capsaicin EC20 potentiation; host cell line not named in the record; control for the full effect not named in the record. potentiation, % at 8.33 µM. hit rate 0.02% among 320,000; active means potentiation above 80%; inconclusive means 30% to 80%; inactive means below 30%; also: 0% is about no effect
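Cells expressing TRPV1 were dye-loaded with Fluo-8 and read kinetically: 10 s baseline, 3 min after compound (agonist portion), then 2 min after EC20 capsaicin (allosteric enhancer portion). Calcium-bound dye fluorescence at 480/520 nm.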
* = called active by the depositor; ? = inconclusive; · = no result given; & = joins results of further samples.

SMILES | CtBP-E1A blk | TRPML1 inh | TRPML1 agonist | D2 potentiator | Six1-Eya2 blk | TRPV1 potentiator
CCN(c1ccccc1)S(=O)(=O)c1ccc2[nH]cc(C(=O)NCCOC)c(=O)c2c1 | -5.5 | 35.3 | 1.3 | 14.3 | -3.4 | 1.3
CN1CC(c2ccccn2)C2(SC(=S)N(Cc3ccccc3)C2=O)C12C(=O)Nc1ccccc12 (stereo not drawn) | -76.1* | 3.5 | 0.1 | -0.5 | -75.9* | 20.0
Cc1cc(C)c(S(=O)(=O)N2CCN(c3ccc([N+](=O)[O-])c(-n4nc(C)cc4C)c3)CC2)c(C)c1 | -27.0 | -6.6 | 0.4 | -20.1 | -21.8 | -0.4
COc1ccc(-n2c(SCC(=O)NCc3cccs3)nc3[nH]ncc3c2=O)cc1 | · | -3.7 | 0.9 | -2.1 | 3.3 | -13.7
CCCCCN(C(=O)CN1CCC(Cc2ccccc2)CC1)c1c(N)n(CCCC)c(=O)[nH]c1=O | -0.3 | -3.3 | 3.0 | -26.1 | -1.1 | 4.0
CN(Cc1ccc(OC(F)F)cc1)Cc1nc2c(Br)cc(Br)cc2c(=O)[nH]1 | 0.6 | 43.0 | 1.9 | -7.1 | -0.3 | 13.1
CCCOc1ccc(C(=O)NCC2OCCc3ccccc32)cc1OC (stereo not drawn) | 7.2 | 1.1 | 0.6 | -7.8 | 12.0 | 1.8
COc1ccccc1-n1c(SC)nc2c(sc(=S)n2-c2ccccc2)c1=O | 0.6 | -3.0 | 0.8 | -2.0 | -4.5 | 25.0
Oc1c(Cl)cc(Cl)cc1C=Nc1ccc(N2CCOCC2)cc1 | 2.7 | 4.5 | 0.1 | -7.1 | 0.5 | 3.3
CCN(CC)CCNC(=O)C(C(=O)c1ccccc1)n1ccccc1=O (stereo not drawn) | 5.7 | 7.9 | 0.5 | 0.5 | 3.1 | 8.2
COc1ccc2cc(C(=O)C3CCCN(C(=O)CSc4nnc(C)o4)C3)ccc2c1 (stereo not drawn) | 4.0 | -5.2 | 0.2 | 5.1 | -6.4 | -3.9
Cc1ccc(C(=O)NCCONC(=O)c2ccc(C)cc2)cc1 | 8.3 | -9.3 | 0.3 | -23.3 | 4.8 | -4.8
CCN1CCN(C(=O)c2ccc(S(=O)(=O)Nc3ccccc3)cc2)CC1 | 1.4 | -5.3 | 0.8 | -1.0 | 1.2 | 2.8
O=C(Nc1ccc(F)cc1)NC1(C(=O)NCc2ccc3c(c2)OCO3)CCCCC1 | -12.0 | -6.5 | 0.9 | -5.2 | -4.4 | 8.8
COc1ccc(-n2nnnc2SCC(=O)NCCc2ccc(OC)c(OC)c2)cc1 | 10.4 | 31.1 | 0.1 | -7.0 | -1.0 | -6.0
CC(OC(=O)c1ccc(Br)o1)C(=O)Nc1ccc2c(c1)OCCO2 (stereo not drawn) | · | -6.2 | -0.7 | -8.8 | -3.1 | -12.0
Cc1ccc2nc(Cl)c(-c3ccccc3)cc2c1 | 46.0 | 19.5 | 2.1 | -9.6 | 41.6 | ·
CCOC(=O)c1ccc(CSc2nnc(-c3ccncc3)n2N)cc1 | -5.5 | 7.5 | -0.8 | 1.6 | 5.1 | -8.2
O=C(c1ccc(COc2ccc3c(c2)CCC3)o1)N1CCN(c2ccccc2)CC1 | 3.7 | 21.8 | 2.8 | -21.0 | -25.4 | ·
COc1ccc(C2N(c3ccc(OC)cc3)C(=S)N3CCCN23)cc1 (stereo not drawn) | 0.7 | -15.4 | 0.1 | -14.2 | 0.1 | 2.0
CCc1ccc(Nc2n[n+](-c3ccccc3)c(-c3ccc(C(=O)O)cc3)s2)cc1 | 3.7 | -15.8 | -0.5 | -8.5 | -0.2 | -24.0
CCCCCC1CCC(C(=O)NNC(=S)NCC)CC1 (stereo not drawn) | -3.2 | 4.5 | -0.5 | -11.1 | 2.7 | -8.2
COc1cc(C=Nc2ccccc2C(=O)Nc2ccccc2)cc(OC)c1OC | 4.9 | 10.6 | 0.3 | -17.8 | 8.6 | 14.8
O=C(Oc1ccccc1)c1ccc(-n2cnnn2)cc1 | 4.0 | -3.1 | 4.1 | -0.4 | -1.2 | 9.4
CC(C)COn1c(=S)[nH]c2ccccc2c1=O | 1.5 | -2.9 | -0.6 | -4.5 | -1.1 | -10.6
Cc1ccc(NS(=O)(=O)c2ccc3c(c2)NC(=O)CCS3)cc1F | -1.9 | -5.4&-8.3 | 1.5&0.9 | 0.2 | 4.2 | -5.3
COc1ccccc1OCCCC(=O)Nc1ccc(N2CCOCC2)cc1 | -1.2 | 0.6 | 0.6 | -3.5 | -9.9 | 21.3
c1coc(CNc2ncnc3nc[nH]c23)c1 | -0.2 | 2.8 | -0.2&-0.5 | 2.5 | 3.1 | 4.7
O=C(NC(=O)c1ccc(Cl)cc1)OC1CCCCC1 | 7.4 | 14.3 | 0.2 | -21.5 | 4.5 | -9.0
CC[C@@H](C)[C@H](NC(=O)Cc1c(C)c2cc3c(C)coc3c(C)c2oc1=O)C(=O)O | · | 9.8 | 0.0 | -4.1 | -8.1 | ?
c1ccc(N2CCN(Cc3ccc4c(c3)OCO4)CC2)nc1 | 2.5 | 11.4 | 0.3 | 90.8* | -2.6 | ·
COc1ccc(Cl)cc1-n1c(C)cc(C(=O)O)c1C | -1.2 | 19.1 | -0.8 | -18.6 | -2.7 | 9.8
CNC(=O)N1CCN(C(=O)NC)CC1 | 9.7 | -14.7 | -0.6 | -1.7 | 1.7 | 3.2
C/C(Cc1ccccc1)=N\NC(=O)CNC(=O)COc1cccc(C)c1 | -16.5 | -24.7 | 1.1 | -6.5 | 0.9 | -19.9
CC1(C)CC(=O)C2=C(C1)Nc1ccccc1[S@]2=O | 1.7 | 31.4 | -0.7 | -0.4 | -9.6 | 1.7
COc1ccc(C(=O)N2C(=O)c3ccc(N)cc3C2=O)cc1 | 1.9 | 9.7 | 0.1 | 3.1 | -7.6 | 6.2
CC(C)n1ncc2c(C(=O)Nc3ccc(CC#N)cc3)cc(C3CC3)nc21 | 3.1 | -6.8 | 2.1 | -5.0 | -2.3 | -24.2
NC(=O)C1(c2ccccc2)CCCN1C(=O)c1ccccc1Br (stereo not drawn) | -10.7 | -20.3 | 3.6 | -4.8 | 12.6 | ?
Cc1ccc(NC(=O)C2CC(=O)OC23CCOC(C)(C)C3)cc1 (stereo not drawn) | -2.5 | 0.9 | 2.9 | -1.9 | -6.8 | 1.8
Cc1cc(C)c2ccc(=S)[nH]c2n1 | -3.6 | -19.6 | -0.2 | -9.1 | -2.3 | 1.2
Cc1nc2nc[nH]n2c(=O)c1CCOC(=O)c1c(F)cccc1F | -0.8 | -5.0 | 2.0 | -4.1 | -3.5 | 3.2
Cc1noc(C)c1COC(=O)c1ccccc1NC(=O)c1ccco1 | -0.2 | 5.0 | -0.4 | 3.9 | -5.0 | -27.6
Cc1cccc(/C=N/NC(=O)C(C)Nc2cccc3ccccc23)n1 (stereo not drawn) | 6.4 | -4.5 | 0.5 | 18.1 | -7.3 | -0.1
COc1ccc(CCNC(=O)CC2SC(=NCCc3ccccc3)NC2=O)cc1 (stereo not drawn) | -12.9 | -0.9 | 0.1 | 0.1 | -0.6 | -12.6
O=C(NCCOC(=O)c1ccccc1)c1ccc([N+](=O)[O-])cc1 | -0.8 | 9.7 | 0.5 | 1.5 | 1.4 | -14.2
CC(C)OCC1Cn2c(nc3c2c(=O)n(C)c(=O)n3C)O1 (stereo not drawn) | 3.9 | 4.7 | -0.3 | -3.4 | 4.4 | -7.6
CCCc1ccc(Oc2cn[nH]c2-c2ccc(O)c(C)c2O)cc1 | 8.8 | 34.6 | 2.6 | 15.6 | -6.4 | 19.6
Cc1ccc(C(C)C)c(OCC(=O)Nc2ccc(N3CCOCC3)cc2N2CCOCC2)c1 | 7.1 | 5.4 | -0.1 | -16.5 | -7.9 | -14.9
O=C(c1nc2ccccn2c1CN1CCN(c2ccccc2O)CC1)N1CCCC1 | -10.4 | 2.6 | -1.0 | -5.6 | -8.0 | -4.5
O=C(COc1ccccc1)Nc1nnc(-c2ccc(Cl)s2)o1 | -19.8 | 3.9 | -0.2 | 4.8 | -12.1 | 15.1
Continued:
SMILES | CtBP-E1A blk | TRPML1 inh | TRPML1 agonist | D2 potentiator | Six1-Eya2 blk | TRPV1 potentiator
Cc1c(C(=O)O)oc2c1C(O)CCC2 (stereo not drawn) | 0.8 | 7.9 | -0.3 | -0.5 | -1.8 | 15.9
O=S(=O)(c1ccccc1)N1C2CCC1CC(O)(c1cccnc1)C2 (stereo not drawn) | 1.3 | -6.5 | 0.8 | -13.5 | 3.5 | 4.3
Cc1ccc(C2c3[nH]c4ccccc4c3C[C@H]3C(=O)N(c4ccccc4C(=O)N4CCC(C(=O)O)CC4)C(=O)N23)cc1 (stereo partly drawn) | -2.8 | · | · | -6.0 | -15.3 | -3.7
COc1ccc(-c2nnc(C)c3nocc23)cc1 | · | -5.1 | 1.0 | -12.8 | -1.5 | -1.6
S=C(S)OC1CC2CC1C1CCCC21 (stereo not drawn) | -14.9 | 7.5 | -0.1 | -10.5 | 5.1 | ·
CCCCNC(=O)C1CCC(=O)N1CCc1ccccc1 (stereo not drawn) | 5.5 | 27.6 | 0.0 | 0.5 | 12.3 | -18.1
Cc1cnc(C(=O)OCC(=O)Nc2cccc(C)c2C)cn1 | -11.0 | -2.9 | 0.3 | -2.8 | 13.3 | ·
O=C(CCCCCN1C(=O)c2ccccc2C1=O)Nc1cccc(O)c1 | 0.1 | 18.8 | 0.9 | -11.2 | -0.1 | -10.3
